VDR inh = blocks the human vitamin D receptor; P11473; VDR-SRC2-3 peptide fluorescence polarization, 2 h; Potency, µM, inactives show max response, negative = inhibition, hits mostly inhibitors; actives 0.93% (n = 400,000); active means well fitted inhibition curve with a large enough effect; inconclusive means small, poorly fitted or top-dose-only effect, or another doubt; inactive means no such curve, though single readings can be large or run the other way; further: series mostly up to about 120 µM
Target sequence (P11473 whole entry, looked up): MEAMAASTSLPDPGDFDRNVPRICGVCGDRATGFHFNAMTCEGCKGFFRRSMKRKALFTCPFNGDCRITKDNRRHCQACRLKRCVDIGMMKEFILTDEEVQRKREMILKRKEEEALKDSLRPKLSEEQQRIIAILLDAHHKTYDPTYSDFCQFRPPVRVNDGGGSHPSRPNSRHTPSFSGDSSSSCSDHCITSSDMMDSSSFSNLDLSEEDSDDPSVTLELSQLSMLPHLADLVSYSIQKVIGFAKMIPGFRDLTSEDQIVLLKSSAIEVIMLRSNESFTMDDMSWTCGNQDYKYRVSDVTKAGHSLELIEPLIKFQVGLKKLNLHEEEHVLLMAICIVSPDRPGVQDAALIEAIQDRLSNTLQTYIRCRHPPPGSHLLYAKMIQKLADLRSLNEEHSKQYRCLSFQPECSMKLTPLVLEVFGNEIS
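The screen uses fluorescence polarization to detect compounds that interfere with recruitment of the SRC2-3 coactivator peptide to VDR; plates are read after 2 h at room temperature.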
* = called active by the depositor; & = joins results of further samples; [ ] = another dose, or the depositor's remark. On the % scale 0 is the no-effect control and ±100 the full control effect; potency means the concentration at half of the fitted maximal effect.

How did O=C1CCC(C(=O)NCc2ccc3c(c2)OCO3)N1 (centres undefined) do in these assays?
VDR inh: -3.8%

What do the screens show for `CCOC(=O)c1cc(-c2ccc(OC)cc2OC)nn1-c1ccc(C(=O)O)cc1`?
VDR inh: inconclusive

What do the screens show for `CCC(=O)c1ccc(OCC(=O)Nc2ccc(N3CCOCC3)cc2N2CCOCC2)cc1`?
VDR inh: -5.0%

What do the screens show for `CN(C)c1ccc(CNS(=O)(=O)c2ccc3[nH]c4c(c3c2)CCCCC4)cc1`?
VDR inh: 3.0%

How did O=S(=O)(c1ccc(F)cc1)N1CCN(c2nc(-c3ccccc3)nc3cc(Cl)ccc23)CC1 do in these assays?
VDR inh: 2.9%

Results for COc1ccc(C(=O)C(Sc2nnc(C)c(=O)[nH]2)c2ccc(OC)cc2)cc1 (centres undefined) ?
VDR inh: 11.3%

How did O=c1c2ccccc2oc2nc(C3CCCCC3)n(Cc3ccco3)c(=O)c12 do in these assays?
VDR inh: -16.8%

Results for CCOc1ccccc1NC(=O)CCNS(=O)(=O)c1ccc(NC(C)=O)cc1 ?
VDR inh: 6.3%

Results for CCc1c(C)nc(N2CCN(c3ccccc3F)CC2)[nH]c1=O ?
VDR inh: 7.1%

What do the screens show for `CC(=O)CC(C)(C)n1nnc(-c2ccccc2)n1`?
VDR inh: 0.1%

How did Cc1ccc(C)c(NC(=O)c2sc(Cl)nc2C)c1 do in these assays?
VDR inh: -3.4%

Results for COc1ccccc1-c1nc(SCC(=O)NCc2ccccc2)c2c(=O)n(C)c(=O)n(C)c2n1 ?
VDR inh: 6.5%

Results for CCc1cccc(CC)c1NC(=O)COC(=O)c1ccc2c(c1)S(=O)(=O)c1ccccc1C2=O ?
VDR inh: -28.4%

How did Cc1cc(C)c(NC(=O)CNC(=O)COC(=O)C2CCN(c3ccc(C(F)(F)F)cn3)CC2)c(C)c1 do in these assays?
VDR inh: 1.0%

Results for O=C(CCSCCC(=O)NN=Cc1ccc(F)cc1)NN=Cc1ccc(F)cc1 ?
VDR inh: -2.9%

Results for CCOC(=O)c1c(C)[nH]c(C(=O)COC(=O)CNC(=O)c2ccccc2Cl)c1C ?
VDR inh: -2.9%

Results for O=S(=O)(c1ccc(F)cc1)N1CCN(C(=S)NC2CC2)CC1 ?
VDR inh: inconclusive

How did COc1cccc(NC(=O)C2CCN(C(=O)[C@@H]3Cc4ccccc4CN3)CC2)c1 do in these assays?
VDR inh: -24.3%

What do the screens show for `Cc1ccc(S(=O)(=O)N2CCCC(C(=O)Nc3ccc(C(=O)O)cc3)C2)cc1Cl` (centres undefined)?
VDR inh: -15.3%

What do the screens show for `N/C(Cc1ccc(Cl)c(Cl)c1)=N\OC(=O)c1ccc(Br)o1`?
VDR inh: 8.8%

Continued, overlapping the part above by 4 compounds.
Results for O=S(=O)(c1ccc(F)cc1)N1CCN(C(=S)NC2CC2)CC1 ?
VDR inh: inconclusive

How did COc1cccc(NC(=O)C2CCN(C(=O)[C@@H]3Cc4ccccc4CN3)CC2)c1 do in these assays?
VDR inh: -24.3%

What do the screens show for `Cc1ccc(S(=O)(=O)N2CCCC(C(=O)Nc3ccc(C(=O)O)cc3)C2)cc1Cl` (centres undefined)?
VDR inh: -15.3%

What do the screens show for `N/C(Cc1ccc(Cl)c(Cl)c1)=N\OC(=O)c1ccc(Br)o1`?
VDR inh: 8.8%

How did CCN(CC)C(=O)CSc1nc2sc3c(c2c(=O)n1CCOC)CCC3 do in these assays?
VDR inh: 4.0%

How did COCCNC(=O)CN(Cc1ccccc1)S(=O)(=O)c1ccc2nc(C)sc2c1 do in these assays?
VDR inh: 15.1%

What do the screens show for `CCc1cccc(OCCn2nc(C(=O)O)c3ccccc3c2=O)c1`?
VDR inh: -24.8%

Results for Nc1nonc1-c1noc(N2CCCCC2)n1 ?
VDR inh: -8.8%

Results for COc1cc(C(=O)Nc2ccncc2)cc(OC)c1OC ?
VDR inh: -4.3%

What do the screens show for `COC(=O)CCC(=O)NNC(=O)C1CC1(c1ccccc1)c1ccccc1` (centres undefined)?
VDR inh: -5.3%

Results for COc1ccc(-c2nnn(Cc3nn[nH]n3)n2)cc1OC ?
VDR inh: 8.3%

How did CC1CCCCC1NC(=O)CSCC(=O)O (centres undefined) do in these assays?
VDR inh: -4.7%

What do the screens show for `c1ccc2c(c1)COC(CNC1CCCCC1)OC2`?
VDR inh: -6.0%

How did Cc1cc(C)c(C)c(S(=O)(=O)N2CCN(C(=O)c3ccccn3)CC2)c1C do in these assays?
VDR inh: 2.7%

What do the screens show for `O=C(Nc1c[nH]c(=O)[nH]c1=O)OCc1ccccc1`?
VDR inh: -3.8%

How did O=C(CCn1nc(-c2ccc(Cl)cc2)ccc1=O)NCc1cccnc1 do in these assays?
VDR inh: 5.3%

What do the screens show for `CCOC(=O)c1c(C)nc2c(c1-c1cc(OC)ccc1OC)C(=O)c1ccccc1-2`?
VDR inh: 2.5%

What do the screens show for `CC(=O)c1cccc(S(=O)(=O)Nc2cc(C(F)(F)F)ccc2N2CCOCC2)c1`?
VDR inh: 0.0%

How did Cc1cc(C)cc(NC(=O)C2CCCN2/C=C/C(=O)C(F)(F)F)c1 (centres undefined) do in these assays?
VDR inh: -12.7%

What do the screens show for `CCCCC(c1nnnn1CCOC)N1CCN(C(=O)c2ccco2)CC1` (centres undefined)?
VDR inh: -6.9%

What do the screens show for `CC(=O)c1ccc(-c2ccc(C(=O)NCC(c3ccc(F)cc3)N3CCOCC3)o2)cc1` (centres undefined)?
VDR inh: -4.4%

What do the screens show for `Cc1c(C(=O)OCCOc2ccccc2)[nH]c2c1C(=O)CC(c1ccc(C(C)(C)C)cc1)C2` (centres undefined)?
VDR inh: -13.6%

Results for Cc1ccc(-c2nn(-c3ccccc3)cc2/C=N/NC(=O)c2ccc(Br)o2)cc1 ?
VDR inh: 9.2%

Results for CC(C)N1CCC(N2CCN(Cc3ccc(C#CC(C)(C)O)s3)CC2CCO)CC1 (centres undefined) ?
VDR inh: -16.2%

Of the compounds above, these have a thiophene ring, fused or not:
How did CCN(CC)C(=O)CSc1nc2sc3c(c2c(=O)n1CCOC)CCC3 do in these assays?
VDR inh: 4.0%

Results for CC(C)N1CCC(N2CCN(Cc3ccc(C#CC(C)(C)O)s3)CC2CCO)CC1 (centres undefined) ?
VDR inh: -16.2%

Additional records
Results for COc1ccc(C(=O)NCc2cccnc2)cc1C(=O)NCc1cccnc1 ?
VDR inh: 3.6%&-13.4%&1.9%

How did CCOc1ccc(N2CC(C(=O)NCCc3c[nH]c4ccc(OC)cc34)CC2=O)cc1 (centres undefined) do in these assays?
VDR inh: -5.5%

How did Cc1ccc(C(=O)Nc2nc3ccccc3n3nnnc23)cc1 do in these assays?
VDR inh: -15.9%

How did CCc1cc(=O)oc2c(C)c(OCC(=O)NC3CC(C)(C)NC(C)(C)C3)ccc12 do in these assays?
VDR inh: 2.2%

Results for CC1(O)CC(=O)N(c2ccccc2)O1 (centres undefined) ?
VDR inh: -9.7%

How did COCCNC(=O)Cn1c(=O)n(CCC(=O)NCCc2ccccc2)c(=O)c2ccccc21 do in these assays?
VDR inh: -1.4%

How did Cc1ccc(Oc2ncccc2CO)cc1 do in these assays?
VDR inh: 28.1%

How did CC(C)c1cc(C(=O)NCc2cccnc2)no1 do in these assays?
VDR inh: -17.2%

What do the screens show for `COc1ccc(C2(O)CCN(Cc3nnnn3Cc3ccc(F)cc3)CC2)cc1`?
VDR inh: 11.7%

How did COc1ccccc1C1CC(=O)Oc2c(C(C)C)ccc(C)c21 (centres undefined) do in these assays?
VDR inh: -10.1%&-4.9%

Among those listed so far, these contain bromine:
What do the screens show for `N/C(Cc1ccc(Cl)c(Cl)c1)=N\OC(=O)c1ccc(Br)o1`?
VDR inh: 8.8%

Results for Cc1ccc(-c2nn(-c3ccccc3)cc2/C=N/NC(=O)c2ccc(Br)o2)cc1 ?
VDR inh: 9.2%

(more compounds)
How did Cc1ccc2c3c(cccc13)-c1ccccc1C2=O do in these assays?
VDR inh: -22.3%

How did CC1CN(C2CCN(S(=O)(=O)c3ccccc3)CC2)CC(C)O1 (centres undefined) do in these assays?
VDR inh: -8.7%

Results for Cc1ccc(C(=O)CCC(=O)OCC(=O)Nc2ccccc2SCC#N)cc1 ?
VDR inh: 20.2%

How did COc1ccccc1CNC(=O)CSc1ccc(-c2ccccn2)nn1 do in these assays?
VDR inh: -0.6%

What do the screens show for `COc1ccc(C(CC(=O)O)NC(=O)Cc2ccccc2)cc1OC` (centres undefined)?
VDR inh: -11.4%

Results for CSc1ccccc1OCc1cc(C(=O)NC2CCc3ccccc32)no1 (centres undefined) ?
VDR inh: 17.4%

How did [O-][n+]1ccc(OCc2ccccc2)cc1 do in these assays?
VDR inh: -16.8%

How did COc1cc2ncnc(NCc3cccc(Cl)c3)c2cc1OC do in these assays?
VDR inh: -20.3%

What do the screens show for `Cc1sc(NC(=O)CCC(=O)O)c(C(N)=O)c1-c1ccccc1`?
VDR inh: inconclusive

How did O=C(O)COc1ccc(Cl)cc1C1CCCCC1 do in these assays?
VDR inh: -11.0%

How did Cc1ccc2c(c1)N(CC(=O)N1CCCc3ccccc31)C(=O)C(C)O2 (centres undefined) do in these assays?
VDR inh: -24.5%

Results for Nc1c(C(=O)CSc2nc3ccccc3o2)c(=O)[nH]c(=O)n1C1CC1 ?
VDR inh: 7.1%

What do the screens show for `Cc1ccc(C)c(NC(=O)COC(=O)c2ccc3ccccc3n2)c1`?
VDR inh: 10.7%

How did O=C(Nc1nnc(Cc2ccc(F)cc2)s1)Nc1ccccc1F do in these assays?
VDR inh: 1.1%

What do the screens show for `O=C(COc1ccc(F)cc1)NC1CC1`?
VDR inh: 8.2%

What do the screens show for `Cc1cccc(-n2c(-c3ccncc3)n[nH]c2=S)c1`?
VDR inh: -7.9%

What do the screens show for `COc1cc(C(=O)Nc2nc(-c3cccs3)cs2)cc(OC)c1OC`?
VDR inh: -9.1%

How did CCC(=O)N(CCCN(C)C)c1nc(-c2cc(OC)ccc2OC)cs1 do in these assays?
VDR inh: 3.5%

How did COc1ccc(N2CC(O)=C(c3nc(-c4ccccc4)cs3)C2=N)cc1 do in these assays?
VDR inh: inconclusive

Results for Cc1ccc(C)n1-c1nn(S(=O)(=O)c2ccccc2)c2cccc(F)c12 ?
VDR inh: -1.9%

How did Cc1ccc(Cn2cccc2C2=NC(C)(C)CO2)cc1 do in these assays?
VDR inh: -23.6%

Results for C=Cn1cc[n+](CC(=O)c2ccc(OC)cc2)c1 ?
VDR inh: -16.9%

How did O=C(Nc1ccc(F)cc1F)c1c(C(F)(F)F)ccnc1Oc1cccc(C(F)(F)F)c1 do in these assays?
VDR inh: -19.1%

How did COc1cccc(C(=O)C2CCCN(C/C=C/c3ccccc3OC)C2)c1 (centres undefined) do in these assays?
VDR inh: -16.2%

What do the screens show for `Cc1nn(C)c(C(=O)N/N=C/c2cccc(Oc3ccccc3)c2)c1Br`?
VDR inh: 0.8%

Results for C[C@@]12C(=O)N(Cc3ccccc3)CC(=O)N1[C@H]1c3ccccc3OC[C@@H]1[C@@H]2c1ccccc1 ?
VDR inh: -9.4%

Results for COc1ccc(NC(=S)N(CCC(C)C)C2CCN(C(C)C)CC2)cc1Cl ?
VDR inh: inconclusive

What do the screens show for `COc1ccc(-c2csc(Nc3ccc(S(=O)(=O)Nc4cc(OC)nc(OC)n4)cc3)n2)cc1`?
VDR inh: -0.8%

How did O=C(C=Cc1ccccc1)c1c[nH]c2ccccc2c1=O do in these assays?
VDR inh: -1.8%

What do the screens show for `CCOc1ccc(C(CC(=O)O)NC(=O)c2sc3ccccc3c2Cl)cc1` (centres undefined)?
VDR inh: -29.2%

What do the screens show for `Cc1csc(SCC(=O)Nc2cc(S(=O)(=O)N3CCCC3)ccc2Cl)n1`?
VDR inh: 10.0%

What do the screens show for `CC1CCN(S(=O)(=O)N2CCC(C(=O)O)CC2)CC1`?
VDR inh: -10.7%

Results for CCOc1ccc(NC(=O)c2ccccc2OCC(=O)c2ccccc2)cc1 ?
VDR inh: 5.4%

What do the screens show for `CCOc1ccccc1CNC(=O)c1cccn1-c1nnc(N2CCCCC2)s1`?
VDR inh: 22.2%

How did COc1ccc(CC(C)N2CCN(c3ccccc3OC)CC2)cc1OC (centres undefined) do in these assays?
VDR inh: 8.5%

Results for O=C(COC(=O)Cc1c(F)cccc1Cl)NCCC1=CCCCC1 ?
VDR inh: -26.7%

Results for CS(=O)(=O)Nc1cccc(-c2nccc(NCc3ccccc3)n2)c1 ?
VDR inh: -0.2%

How did O=C(Nc1cc2c(cc1C(=O)c1ccccc1Br)OCCO2)c1cccc(Cl)c1 do in these assays?
VDR inh: -5.7%

Results for CSc1nc(C)c2c(n1)N(c1ccc(O)cc1)CC2 ?
VDR inh: 32.3%[activator]

Results for CCNc1nc(SC(C)C(=O)OC)nc(N2CCOCC2)n1 (centres undefined) ?
VDR inh: -1.8%

What do the screens show for `COc1ccccc1CNC(=O)c1ccc(NC(=O)N2CC(C)Sc3ccccc32)cc1` (centres undefined)?
VDR inh: -3.9%

Results for COc1cc2c(cc1OC)CN(c1ccc(C(F)(F)F)cn1)CC2 ?
VDR inh: inconclusive

How did COc1ccc(OCC(=O)Nc2cc3oc4ccccc4c3cc2OC)cc1 do in these assays?
VDR inh: -29.1%

What do the screens show for `NC(=O)C1=C[C@@H](c2coc3ccccc3c2=O)C[C@@H](OCc2ccc(CO)cc2)O1`?
VDR inh: -3.3%

How did O=C(COC(=O)c1nn(-c2ccccc2)c(=O)c2ccccc12)NC1CCS(=O)(=O)C1 (centres undefined) do in these assays?
VDR inh: 18.7%

How did CCN1CCN(C(c2cccs2)C(C)NC(=S)Nc2cc(C)ccc2C)CC1 (centres undefined) do in these assays?
VDR inh: 6.1%

What do the screens show for `COc1ccc(CCC(=O)Nc2ccc(C)c(S(=O)(=O)N(C)C)c2)cc1OC`?
VDR inh: -10.4%

What do the screens show for `O=C(CCN1C(=O)S/C(=C\c2cccs2)C1=O)Nc1nccs1`?
VDR inh: -17.7%

What do the screens show for `CCc1ccc(CN(Cc2cn[nH]c2-c2ccc(OC)cc2)C(=O)Nc2cc(Cl)ccc2OC)cc1`?
VDR inh: 9.1%

Results for O=C(COC(=O)c1ccccc1O)NC1CCCc2ccccc21 (centres undefined) ?
VDR inh: -8.7%

Not all compounds are listed; rates above refer to the full screens.
